Bm FixLJ act: B. multivorans fixK reporter activation. B. multivorans fixK-promoter GFP reporter, 18 h; hits give high values. z-score (concentration not given with the values). actives 0.3% (n = 29,000). AID 1918990;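 active = replicate mean overnight rise in green fluorescent reporter signal, 3 or more SD over negative controls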;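 also: score is relative to vehicle wells of the plate; 300 nL library stock went into each well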
Starred values were filed as active, the others as inactive; & = joins results of further samples. An excerpt; rates above refer to the full screens.

structure	Bm FixLJ act
CCOc1ccc2oc(=O)cc(CN3CCN(c4ccc(Cl)cc4)CC3)c2c1	1.2
COc1ccccc1-c1nc2c3c(-c4ccccc4)c(-c4ccccc4)oc3ncn2n1	0.58
COc1ccc(CCn2c3c(c(=O)[nH]c2=O)C(NC(=O)c2ccccc2OC)(C(F)(F)F)C(=O)N3)cc1OC (stereo not drawn)	-1.9
CCOc1ccc(S(=O)(=O)Nc2cc3c(C(=O)OC)c(COC)oc3c3ccccc23)cc1	-1.1
CCN1CCN(CCCNC(=O)c2cnc3ccccn3c2=O)CC1	-0.96
COc1ccc(OCc2nc3c4c(-c5ccc(OC)cc5)c(-c5ccc(OC)cc5)oc4ncn3n2)cc1	0.09
O=C(CC1CCCC1)N1CC2CCC(C1)N(Cc1cscn1)C2=O (stereo not drawn)	-0.33
CCCN(CCC)C(=O)Cn1c(=O)n(Cc2ccc(C(=O)NCCc3ccc(Cl)cc3)cc2)c(=O)c2ccccc21	2.4
CSc1ncc(Cl)c(C(=O)NCc2ccc(C)cc2)n1	-0.4
O=C(Nc1cccc(F)c1)c1cccc2c1C(=O)N(C1CCCCC1)C2	0.07
CSc1ccc(CCNC(=O)Cn2nc(C)n3c(cc4sccc43)c2=O)cc1	-0.83
COC(=O)c1cc2oc3ccccc3c2n1Cc1nc(-c2cccc(C)c2)oc1C	-1
Cc1cccc(CCNc2ncnc3onc(-c4ccc(Cl)cc4)c23)c1	-1.2
CCCN1CCN(C(=O)c2nc(C)oc2C)C2CS(=O)(=O)CC21 (stereo not drawn)	-2.6
Cc1ccc(CN(C(=O)COc2ccc(Cl)c(C)c2)C2CCS(=O)(=O)C2)o1 (stereo not drawn)	-1.2
CCOc1ccc(-n2c(SCc3nc(-c4ccc(OC)cc4)no3)nnc2-c2ccncc2)cc1	-0.39
Cn1c(C(=O)NCc2cccc(Cl)c2)cc2oc3ccccc3c21	1.3
N#Cc1ccccc1CN1CCN(c2nccc(CCC(F)(F)F)n2)CC1	0.49
CCOc1ccc(-n2c(SCC(=O)Nc3cccc(Cl)c3)nc3c(oc4ccccc43)c2=O)cc1	0.43
COc1ccc(NCc2nc3ccccc3n2CCOc2ccccc2C)cc1	1

5 structures from above, sorted by length of the SMILES, ascending:
structure	Bm FixLJ act
CCN1CCN(CCCNC(=O)c2cnc3ccccn3c2=O)CC1	-0.96
N#Cc1ccccc1CN1CCN(c2nccc(CCC(F)(F)F)n2)CC1	0.49
CSc1ccc(CCNC(=O)Cn2nc(C)n3c(cc4sccc43)c2=O)cc1	-0.83
CCOc1ccc(S(=O)(=O)Nc2cc3c(C(=O)OC)c(COC)oc3c3ccccc23)cc1	-1.1
CCCN(CCC)C(=O)Cn1c(=O)n(Cc2ccc(C(=O)NCCc3ccc(Cl)cc3)cc2)c(=O)c2ccccc21	2.4

Going on with the list:
structure	Bm FixLJ act
CNC(=O)c1noc(CN2CC(O)C(Cc3ccnc4ccccc34)C2)n1 (stereo not drawn)	-1.5
O=C(CSc1ncc(S(=O)(=O)c2ccc(Cl)cc2)c(=O)[nH]1)Nc1cccc(C(F)(F)F)c1	0.31
CCCCc1ccc(NC(=O)NC(C)c2n[nH]c(C)n2)cc1 (stereo not drawn)	-1.2
CC(=O)Nc1ccc(C2Sc3ccccc3NC3=C2C(=O)c2ccccc23)cc1 (stereo not drawn)	0.46
Cc1ccc(Nc2c(-c3ccsc3)nc3c(C)cccn23)cc1	1
COc1ccccc1OCC(=O)Nc1c(C(=O)c2ccc(C)cc2)oc2ccccc12	-2.1
Cc1ncc(C(=O)NCCC2CCCCN2S(C)(=O)=O)[nH]1 (stereo not drawn)	-1.1
Cc1cc(C)c(Cn2c3ccccc3c3cnn(CC(=O)NCCCc4ccccc4)c(=O)c32)c(C)c1	-0.55
CCC(C)NC(=O)c1ccc2c(=O)n3c(nc2c1)CCCCC3 (stereo not drawn)	-0.51
COc1ccc(S(=O)(=O)NCCSc2nnnn2-c2ccccc2)cc1OC	-1.7
COc1ccc(-c2cc(C(F)(F)F)nc(SCCC(=O)Nc3c(C)cccc3C)n2)cc1	-0.06
COc1ccccc1CCNC(=O)C1CCN(c2nnc(-n3cccc3CNc3ccc(C)cc3)s2)CC1	0.85
CCOC(=O)c1c(NC(=O)c2ccc(OC)c(OC)c2)sc2c1CCCCC2	-0.46
CC(C(=O)Nc1nncs1)N1CCC(C(N)=O)(N2CCCCC2)CC1 (stereo not drawn)	0.35
CCc1nn(C(C)C(=O)N2CCN(c3cccc(C(F)(F)F)c3)CC2)c(=O)c2cc3occc3n12 (stereo not drawn)	0.99
O=C(NCc1cc(-c2ccc(F)cc2)no1)C1CCCCn2nnnc21 (stereo not drawn)	-1.8
Cc1ccccc1C(c1c(C)n(C)n(-c2ccccc2)c1=O)c1c(C)n(C)n(-c2ccccc2)c1=O	-2.7
CCOc1ccc(S(=O)(=O)Nc2cccc(C)c2)c2cccnc12	0.32
COc1ccc(NC(=O)c2oc3ccccc3c2NC(=O)Cc2ccc(F)cc2)c(OC)c1	0.7
O=C(NCc1cccnc1)c1nn(-c2ccc(Cl)cc2)nc1CO	-1.6
Cc1c(Cl)cccc1NC(=O)CC1Oc2ccccc2NC1=O (stereo not drawn)	-0.68
CCOc1ccc(CNC(=O)C2CCN(C3=NS(=O)(=O)C(c4ccc(C)cc4)=C3CC)CC2)cc1	-2.2
CC(=O)c1c(C)nn(CCC(=O)N2CC(O)C(Cc3cc(C)no3)C2)c1C (stereo not drawn)	0.61
CCCc1nnsc1C(=O)N1CCC(n2nc(C)cc2C)C1 (stereo not drawn)	-1
c1ccc(Nc2c(-c3c[nH]c4ccccc34)nc3ccccn23)cc1	1.4
O=C(CCCN1CCCCCC1)NC1COCC1Cc1ccnc2ccccc12 (stereo not drawn)	-0.78
Cc1nc(N)nc(NC2CCN(C(=O)N3CCCC3)CC2)c1Cl	-0.67
CCCCCCCCCCCCCCCC(=O)OC/C=C(C)/C=C/C=C(C)/C=C/C1=C(C)CCCC1(C)C	-2.4
Cc1nc(CCC(=O)N2CC3CCC2CN(C(=O)c2ccccn2)C3)n[nH]1 (stereo not drawn)	0.36
Cc1cccc(N(C)C(=S)Oc2ccc3ccccc3c2)c1	1.5
COc1cc(-c2nc(Cn3nnc(C(=O)Nc4ccccc4)c3C)c(C)o2)cc(OC)c1OC	-0.01
CCOC(=O)C1CCCN(c2nc3c(S(=O)(=O)c4ccc(CC)cc4)nnn3c3ccc(Cl)cc23)C1 (stereo not drawn)	-1.3
COc1ccc(-n2nc3ccc(NC(=O)COc4ccc(C)c(C)c4)cc3n2)cc1	-1.3
CCOC(=O)c1c(-c2ccccc2)oc2ccc(N(C(C)=O)S(=O)(=O)c3ccccc3)cc12	-1
COc1ccc2oc(=O)cc(CN3CCN(c4ccc(F)cc4)CC3)c2c1	-2.6
COc1ccc(N(Cc2cc3ccccc3[nH]c2=O)C(=O)c2cccc(Cl)c2)cc1	-1
Cc1nc(C)c(C(=O)N2CCC3(CCC(=O)N(Cc4ccccc4)C3)CC2)o1	1.1
CCc1ccccc1NC(=O)CC1NCCNC1=O (stereo not drawn)	-1.2
CCN(CCCNC(=O)CSc1cc(=O)n(C)c2cc(Cl)ccc12)c1cccc(C)c1	-0.72
CCOc1ccc(/C=C(\C#N)c2nc(-c3cc4ccccc4oc3=O)cs2)c(OCC)c1	0.24

The final two entries of the section above come first, to join the parts:
structure	Bm FixLJ act
CCN(CCCNC(=O)CSc1cc(=O)n(C)c2cc(Cl)ccc12)c1cccc(C)c1	-0.72
CCOc1ccc(/C=C(\C#N)c2nc(-c3cc4ccccc4oc3=O)cs2)c(OCC)c1	0.24
COc1cc(NC(=O)C2CCN(S(=O)(=O)c3ccc4c(c3)oc(=O)n4C)CC2)cc(OC)c1	-2.1
CCc1ccc(S(=O)(=O)N(Cc2cccnc2)CC2CCC(=O)N2)s1 (stereo not drawn)	-0.59
CC(=O)c1sc2c(c1C)c(=O)n(-c1ccc(Cl)cc1)c(=O)n2Cc1cc(=O)n2cc(Cl)ccc2n1	1
CCn1c(=N)c(C(=O)NCc2cccnc2)cc2c(=O)n3cc(C)ccc3nc21	-1.5
Cc1cc(C)cc(CN2CCN(S(C)(=O)=O)C3CS(=O)(=O)CC32)c1 (stereo not drawn)	-0.01
COc1cc(/C=C(/C#N)c2nc(-c3cc4ccccc4oc3=O)cs2)ccc1O	0.26
COCCc1nc(CNC(=O)N(C)Cc2c(C)noc2C)no1	1.1
COc1cccc([C@@]2(O)CCCC[C@@H]2CN(C)C)c1	-1.9
CCSc1nnc2n(-c3cccc(C)c3)c(=O)c3c4c(sc3n12)CCCC4	-3.7
CCC(C(=O)N1CCCN(C(=O)c2ccoc2)CC1)n1cccn1 (stereo not drawn)	-0.83
Cc1ccc(S(=O)(=O)N(CC(O)Cn2c3ccccc3c3ccccc32)c2cccc(C(=O)N(C)C)c2)cc1 (stereo not drawn)	-1.6
Cc1cc2nc(-c3ccc(NC(=O)c4cc5ccccc5o4)cc3)oc2cc1C	-1.2
Cc1ccc(S(=O)(=O)c2cnc(SCC(=O)Nc3ccc4c(c3)OCCO4)[nH]c2=O)cc1	-1.5
CN(Cc1nc(-c2ccncc2)no1)C(=O)NCC1(c2ccccc2)CCCC1	1.3
COc1ccc(NC(=O)c2ccc3oc(=O)c(S(=O)(=O)c4ccc(F)cc4)cc3c2)c(OC)c1	0.14
Cc1oc2c(cc(NS(=O)(=O)c3ccc(C(C)C)cc3)c3ccccc32)c1C(=O)OCc1ccccc1	0.11
CCc1ccc(OCC(=O)Nc2ccc(Cl)c(-c3nc4cc(C)cc(C)c4o3)c2)cc1	-0.77
CC(C[N+](C)(C)C)OC(N)=O (stereo not drawn)	-0.82&-1.5
CCn1ncc(Cl)c1C(=O)N1CCc2c(c(C(=O)O)nn2CC(C)C)C1	-0.89
Cc1c(CNC(=O)N2CCCN(c3ccc(F)cc3)CC2)cnn1C	0.62

2 entries from above, with each value named:
CCn1ncc(Cl)c1C(=O)N1CCc2c(c(C(=O)O)nn2CC(C)C)C1
  Bm FixLJ act: -0.89
COc1cc(NC(=O)C2CCN(S(=O)(=O)c3ccc4c(c3)oc(=O)n4C)CC2)cc(OC)c1
  Bm FixLJ act: -2.1

Other entries:
structure	Bm FixLJ act
O=S(=O)(c1ccccc1)c1nc(-c2cccc(Cl)c2)oc1N1CCOCC1	-0.63
Cc1ccccc1Cn1c(=O)n(Cc2ccc(Cl)cc2)c(=O)c2cccnc21	0.4
CCOc1ccc(S(=O)(=O)Nc2cc3c(C(=O)OCc4ccccc4)c(C)oc3c3ccccc23)cc1	-0.8
COc1ccc2c(c1)CC(c1n[nH]c(Cc3cccs3)n1)CO2 (stereo not drawn)	-0.04
COC(=O)c1nnn(CC(=O)NC(=O)Nc2c(C)cccc2C)c1C(=O)OC	0.14
CN1CC(CNC(=O)c2cccc(-c3ncc[nH]3)c2)OCC1=O (stereo not drawn)	-3.5
CCc1ccc(NC(=O)Cn2c(=O)n(CC3CCCO3)c(=O)c3cc(OC)c(OC)cc32)cc1 (stereo not drawn)	0.12
COc1ccc(Br)cc1CNC(=O)Cn1nc(C)n2c(cc3cc(F)ccc32)c1=O	-0.43
C=Cc1ccc(Cn2c(C)c(CNCc3ccc(SC)cc3)c(C(=O)O)c2C)cc1	-2.3
CCOC(=O)c1ccc(NC2=CC(c3ccc(OCC)cc3)N(c3ccc(C(=O)OCC)cc3)C2=O)cc1 (stereo not drawn)	-2.8
Cc1ccc(-c2csc(/C(C#N)=C/c3ccccc3Cl)n2)cc1	-2
CCc1ccc2oc(-c3cc(NC(=O)c4cc([N+](=O)[O-])ccc4N4CCOCC4)ccc3Cl)nc2c1	-1.7
Cc1ccc(C)c(CSc2nc3ccncc3n2CC(=O)Nc2ccc(N(C)C)cc2)c1	-0.09
CCN(CC)c1ccc(C(=O)N2CCC(c3c[nH]c4ccccc34)(c3c[nH]c4ccccc34)CC2)cc1	0.2
CSc1ncc(Cl)c(C(=O)N(Cc2ccc(C)cc2)C2CCS(=O)(=O)C2)n1 (stereo not drawn)	-0.13
Cc1c(C(=O)OC2CCCCC2)[nH]c2c1C(=O)CC(c1ccccc1)C2 (stereo not drawn)	-0.59
Cc1ccc(NC(=O)Cn2c(=O)c3cc(Cl)ccc3n3nncc23)cc1	-0.66
Cc1ccccc1Cn1c2ccccc2c2cnn(CC(=O)NCCc3ccccc3)c(=O)c21	-2.6
COc1ccc(CCCc2nnc(SCC(=O)Nc3ccc(C)cc3)o2)cc1	-1
CCn1c(CN2CCC(C(=O)N3CCCCC3)CC2)nnc1C1CC(N)C1 (stereo not drawn)	0.13
Cc1cccc(Cn2c(SCc3ccc(C(=O)NC4CCCCC4)cc3)nc3ccncc32)c1	-5.3
CCn1cc2nc(SCC(=O)Nc3ccc(OC)c(OC)c3)n(Cc3ccc(Cl)cc3)c(=O)c2n1	-1.3
CC(C)Oc1ccc(CNC(=O)c2ccc(NC(=O)N3CC(C)Sc4ccccc43)cc2)cc1 (stereo not drawn)	-0.82
CC(=O)Cn1nnc2sc(-c3ccccc3)cc2c1=O	0.11
CC1CCc2c(sc(NC(=O)C3c4ccccc4Oc4ccccc43)c2C#N)C1 (stereo not drawn)	-3.3
O=C1c2[nH]nc(-c3ccccc3O)c2C(c2ccccc2F)N1Cc1ccncc1 (stereo not drawn)	-0.4
CC(CNc1nc2ccccc2c2nc(-c3ccccc3)nn12)c1ccccc1 (stereo not drawn)	1.1
CCc1ccc2occ(CC(=O)Nc3nnc(C)s3)c2c1	-1.1
Cn1nc(-c2cccs2)cc1C(=O)Nc1cc2[nH]c(=O)[nH]c2cc1N1CCCC1	-2
Cc1cc(N2CCC(NCCCn3nc(C)cc3C)CC2)nc(N)n1	-1.8
Cc1cccc(N(C)C(=O)Cc2c(C(=O)O)[nH]c3ccccc23)c1	0.48
Cc1ccn2c(c1)nc(=O)c1cc(S(=O)(=O)N3CCCCC3)c(Cl)cc12	-0.37
CC(C)(CN1CC2CCC1CN(C(=O)c1cnccn1)C2)N1CCOCC1 (stereo not drawn)	0.95
Cc1ccc(C(=O)N2CCC(Cc3cccc(C(N)=O)c3)C2)c2ccccc12 (stereo not drawn)	-0.44
CC(C)(C)c1ccc(OCc2nnc(-c3ccccc3)o2)cc1	-1.2
CCn1cc(C(=O)NCCCOC(C)C)c(=O)c2cc(S(=O)(=O)N3CCc4ccccc4C3)ccc21	1.2
CC(C)Oc1ccc(CNC(=O)c2ccc3c(c2)N(Cc2ccc(F)cc2)CCS3)cc1	-0.34
